# MbtI inh: blocks the Mycobacterium tuberculosis siderophore enzyme MbtI; AID 493033; purified MbtI enzyme, fluorescence intensity read-out; hit rate 0.89% among 100,000; inhibition, %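 (about 17 µg/mL by stock and volumes)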;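 active = above 50% in both replicates, above 80% if mildly self-fluorescent; inactive = the rest, strongly fluorescent compounds included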;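 note: 0% = mean of negative and 100% = mean of positive controls; one replicate is shown; some compounds called inactive have numbers as strong as hits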
# Target sequence (P9WFX0 whole entry, looked up): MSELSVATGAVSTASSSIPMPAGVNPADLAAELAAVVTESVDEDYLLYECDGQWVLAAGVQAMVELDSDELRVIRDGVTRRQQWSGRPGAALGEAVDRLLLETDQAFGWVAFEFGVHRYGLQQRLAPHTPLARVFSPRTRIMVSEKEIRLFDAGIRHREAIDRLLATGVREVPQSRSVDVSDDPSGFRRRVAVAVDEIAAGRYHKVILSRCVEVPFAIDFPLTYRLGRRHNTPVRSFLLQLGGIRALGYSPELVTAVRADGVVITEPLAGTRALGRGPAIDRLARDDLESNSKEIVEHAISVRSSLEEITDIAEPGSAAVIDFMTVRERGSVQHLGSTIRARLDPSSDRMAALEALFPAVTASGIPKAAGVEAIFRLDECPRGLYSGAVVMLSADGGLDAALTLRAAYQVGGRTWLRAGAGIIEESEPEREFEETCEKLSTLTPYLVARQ
# MenB inh: inhibitors of Mycobacterium tuberculosis MenB enzyme | P9WNP5 | MenB enzyme assay, absorbance read-out; some hits fall short of the stated cut | inhibition, %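 (about 12 µg/mL by stock and volumes)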 | hit rate 0.43% among 100,000;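 active = mean of two replicates above 30%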;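 note: 0% = no compound and 100% = wells with inactive enzyme; the first replicate is given; strong numbers were not always called active; inactives centre near -10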
# Target sequence (P9WNP5 whole entry, looked up): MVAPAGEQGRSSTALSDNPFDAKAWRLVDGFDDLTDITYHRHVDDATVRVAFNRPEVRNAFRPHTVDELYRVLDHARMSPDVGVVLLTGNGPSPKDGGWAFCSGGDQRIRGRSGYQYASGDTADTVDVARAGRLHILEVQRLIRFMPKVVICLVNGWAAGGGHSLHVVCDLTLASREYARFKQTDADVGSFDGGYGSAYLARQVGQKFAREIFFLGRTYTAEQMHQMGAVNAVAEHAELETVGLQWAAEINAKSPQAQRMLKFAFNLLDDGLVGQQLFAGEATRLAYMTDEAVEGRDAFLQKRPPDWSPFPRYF
# PV pol inh: poliovirus RNA polymerase inhibition | P03300 | poliovirus polymerase elongation, fluorescence polarization; active compounds read low | % elongation, % (compound at 16.7 µg/mL) | hit rate 0.66% among 150,000; in the data active = % elongation below about 90%; note: some results filed as inactive read as strong as hits
# PV pol inh intensity: also measured in PV pol inh; calls as there; % elongation; measured here: total intensity read-out; formula for this scale not given here;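 total fluorescence in place of polarization; lower means less elongation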
# Starred values were filed as active, the others as inactive; i = inactive; . = not tested or not shown.
# Start of the data: the first 7 records, ahead of the listing:
SMILES,MbtI inh,MenB inh,PV pol inh,PV pol inh intensity
CC1CC(C)CN(S(=O)(=O)c2ccc(C(=O)NN3CCOCC3)cc2)C1 (configuration not stated),-3,-29,104,106
CCOC(=O)c1cc2ccccc2oc1=N,.,-6,101,96
O=C(O)C1C2C=CC(C2)C1C(=O)NCCc1ccncc1 (configuration not stated),.,-4,102,96
Cc1ccc(-c2nnc(N3CCOCC3)c3ccccc23)cc1S(=O)(=O)NCC1CCCO1 (configuration not stated),3,25,102,102
O=c1[nH]c(-c2ccccc2O)nc2sc3c(c12)CCCC3,.,-4,89*,91*
Cc1ccc(Oc2ccc(C)c(C)c2)cc1C,9,-15,104,109
Cc1cccc(OCC(=O)NCc2ccccc2)c1,-1,.,103,104

# The list itself, previewed entries included:
SMILES,MbtI inh,MenB inh,PV pol inh,PV pol inh intensity
CC1CC(C)CN(S(=O)(=O)c2ccc(C(=O)NN3CCOCC3)cc2)C1 (configuration not stated),-3,-29,104,106
CCOC(=O)c1cc2ccccc2oc1=N,.,-6,101,96
O=C(O)C1C2C=CC(C2)C1C(=O)NCCc1ccncc1 (configuration not stated),.,-4,102,96
Cc1ccc(-c2nnc(N3CCOCC3)c3ccccc23)cc1S(=O)(=O)NCC1CCCO1 (configuration not stated),3,25,102,102
O=c1[nH]c(-c2ccccc2O)nc2sc3c(c12)CCCC3,.,-4,89*,91*
Cc1ccc(Oc2ccc(C)c(C)c2)cc1C,9,-15,104,109
Cc1cccc(OCC(=O)NCc2ccccc2)c1,-1,.,103,104
FC(F)Oc1ccc(N=C2SCC3CCCCN23)cc1 (configuration not stated),-10,-30,100,104
O=C(Nc1ccccc1Cl)N1CCc2ccccc2C1,-2,-7,102,102
CC1Sc2ccc(C(=O)NCc3ccccn3)cc2NC1=O (configuration not stated),87*,-42,87*,96*

# Whole records, looked up by structure. Values in the order: MbtI inh, MenB inh, PV pol inh, PV pol inh intensity
# Listed for FC(F)Oc1ccc(N=C2SCC3CCCCN23)cc1 (configuration not stated) = -10, -30, 100, 104
# Listed for CCOC(=O)c1cc2ccccc2oc1=N = ., -6, 101, 96

# More entries.
SMILES,MbtI inh,MenB inh,PV pol inh,PV pol inh intensity
CCCC(C)C(=O)Nc1ccc(Cl)cn1 (configuration not stated),6,-14,98,100
CC(=O)NC(N1CCCCC1c1cccnc1)(C(F)(F)F)C(F)(F)F (configuration not stated),.,-25,110,110
O=C(COc1ccc(Cl)cc1)Nc1noc2ccccc12,10,-4,104,104
CCOC(=O)C1=C(N)SC(c2ccccc2)=C(C#N)C1c1ccco1 (configuration not stated),.,-7,96,112
O=C1C(C=NC(CO)(CO)CO)=C(O)c2ccccc21,.,-25,110,112
COc1ccc2c(c1)c(C(=O)O)c(C)n2C(C)C,90,-28,103,103
O=c1[nH]c2c(c(=O)[nH]1)CN(Cc1ccc(F)cc1)CC2,51,-3,102,99
Cc1ccc(-c2nn3c(CC#N)nnc3c3ccccc23)cc1,-2,-21,101,104
Cc1ccc(OCC(=O)n2cnnc2N)c(C)c1,.,-25,92,86
CCC(C)NC(=O)c1ccc2c(c1)NC(=O)C(CC(C)C)N2 (configuration not stated),24,-2,102,101

# Reprinted at random: 3 records from the list
SMILES,MbtI inh,MenB inh,PV pol inh,PV pol inh intensity
FC(F)Oc1ccc(N=C2SCC3CCCCN23)cc1 (configuration not stated),-10,-30,100,104
Cc1ccc(Oc2ccc(C)c(C)c2)cc1C,9,-15,104,109
CCOC(=O)C1=C(N)SC(c2ccccc2)=C(C#N)C1c1ccco1 (configuration not stated),.,-7,96,112

# The list continues.
SMILES,MbtI inh,MenB inh,PV pol inh,PV pol inh intensity
CCn1cc(S(=O)(=O)NCCc2ccccc2)cn1,-16,4,101,101
Brc1ccc(-c2nc3ccccc3s2)s1,-9,.,101,105
COc1ccc(NS(=O)(=O)c2ccc(CCN3C(=O)c4cccnc4C3=O)cc2)cc1,-3,-7,102,103
S=C(NCc1csc2ccccc12)NCC1CC1,-12,-9,107,109
C=CCSc1nc2sc3c(c2c(=O)n1CC=C)CCCC3,-15,-13,102,103
COc1cccc(-c2[nH]nc(N)c2C)c1,8,3,102,104
CN(C)S(=O)(=O)c1ccc2c(c1)nc(CCC(=O)NCC1CCCCC1)n2C,-7,-3,104,103
COC(=O)c1ccc(CSc2ncnc3sc(C)c(C)c23)o1,49,-25,105,107
CCOC(=O)c1ccc(NC(=S)N2CCCN(Cc3cc(C)ccc3C)C2)cc1,-6,-32,104,107
Cc1ccc2cc(CN(C)C3CCS(=O)(=O)C3)c(Cl)nc2c1C (configuration not stated),-4,-29,106,100
CC(C)(C)C(=O)CSc1nc2ccccc2n1S(=O)(=O)c1ccccc1,-10,-35,100,101
CCc1ccc(NC(=O)C(C)Nc2ccc(Br)cc2)cc1 (configuration not stated),-7,.,101,102
Cc1ccccc1-c1ccc2cccc(C)c2n1,.,-22,107,105
CN(Cn1c(=O)oc2ccccc21)C1CCCCC1,.,1,101,104
Cc1ccc(-c2ccc(O)c(C)c2)cc1,-9,.,101,97
Cn1c(=O)oc2cc(S(=O)(=O)N3CC(=O)N(CCc4ccccc4)C(=O)C3)ccc21,4,-8,102,96
COc1cc(OC)cc(C2C(C#N)=C(N)Nc3oc(C)nc32)c1 (configuration not stated),.,-20,101,94
COc1ccccc1C(c1c(C)[nH][nH]c1=O)C(C#N)C#N (configuration not stated),-22,-27,100,101
Cc1nc(-c2ccc(OC(F)F)cc2)cs1,28,5,104,104
COc1cc(C)c(S(N)(=O)=O)cc1C(C)C,-3,3,98,101
Cc1ccc(NCC(=O)N2CC3(C)CC2CC(C)(C)C3)cc1F (configuration not stated),10,-13,103,110
Cc1[nH]c2ccccc2c1C=Nc1ccccc1Br,7,.,104,107
CCC(CO)NS(=O)(=O)c1cc(-c2nnc(OC)c3ccccc23)ccc1C (configuration not stated),1,-2,104,105
Cc1n[nH]c(=O)c2c(NC(=O)COC(=O)Cc3c(F)cccc3Cl)oc(C)c12,20,3,94,103
CCc1ccccc1OCC(=O)OCC(=O)Nc1cc(C)on1,-17,-26,104,102
CC1Cc2ccccc2N1C(=O)CCS(=O)(=O)c1ccc2c(c1)n(C)c(=O)c(=O)n2C (configuration not stated),1,10,101,99
COc1ccc(CCN=C(N)Nc2nc(C)cc(C)n2)cc1OC,.,-1,97,106
CCn1c2ccccc2c2cc(/C=N/O)ccc21,i,-65,99,101
CC(Sc1nnnn1C)C(=O)NC(C)c1ccc(Cl)cc1Cl (configuration not stated),-6,-22,99,94
CCOC(=O)C1CCN(Cc2cn[nH]c2-c2ccc(C)cc2)CC1,0,-5,100,99
NCCS(=O)(=O)c1ccc(C(F)(F)F)cn1,3,4,104,103
O=C(Nc1cccc(I)c1)C(=O)c1c(O)[nH]c2ccccc12,-18,.,101,106
NC(=O)SCc1nc2c3ccccc3ncn2n1,89,-8,98,118
NC1=Nc2ccccc2CC1,-13,4,101,104
Nc1ccc(C(=O)N(CCO)CCO)cc1,-1,4,102,103
CCn1c2ccccc2c2cc(CN3CCN(C)CC3)ccc21,-15,-15,98,101
Cc1ccc(N(CC(=O)N2CCN(c3ccccc3)CC2)S(=O)(=O)c2c(C)n[nH]c2C)cc1,-5,-23,102,104
CCC1(CC)C(=O)N(CC(=O)OC)C(=O)N(C)C1=S,-13,-7,102,107
CN(C(=O)Cc1noc2ccccc12)c1ccccc1,-5,-5,101,100
Cc1ccc(OCc2nc(SCC(=O)c3ccc(S(=O)(=O)N4CCCC4)cc3)n[nH]2)cc1,-3,-13,.,.
Cc1noc(C)c1CSc1ccccc1C(=O)NC(C)c1ccc2c(c1)OCCO2 (configuration not stated),89*,-29,100,105
c1ccc(Cn2nnc3cnccc32)cc1,-10,.,104,109
CC(c1ccccc1)C(CC(=O)O)C(=O)O (configuration not stated),16,-3,99,98
COc1ccc(CC(=O)NCc2cc(C)oc2C(F)(F)F)cc1OC,-14,-11,100,105
O=C(COC(=O)C1CC(O)CN1S(=O)(=O)c1ccc(F)cc1)Nc1nccs1 (configuration not stated),7,-24,98,99
Cc1cc(C(=O)OCC(=O)c2ccc(NC(=O)CC(C)C)cc2)no1,-6,3,109,112
CC1CCCCN1C(=O)Cn1c(=O)n(C2CCCC2)c(=O)c2ccccc21 (configuration not stated),7,-16,104,104
Cc1ccc(/C=C/C(=O)OCc2nc3ccccc3c(=O)n2CC#N)o1,2,-32,108,103
CC12CCC(C(=O)O)(c3nc4ccc5ncccc5c4nc31)C2(C)C (configuration not stated),3,0,103,103
CC(C)N(Cc1ccccc1)C(=O)Cn1ncc2c(=O)oc3ccccc3c21,6,-22,100,103
# Next section
SMILES,MbtI inh,MenB inh,PV pol inh,PV pol inh intensity
CC(C)(CO)NCC(=O)Nc1ccc(Cl)cn1,-39,-5,101,100
COc1cc(C(=O)CBr)cc(OC)c1OC,50,.,104,98
CCc1ccc(/C(C#N)=C/C=C/c2ccccc2)cc1,-4,-7,100,104
O=C(NCCCN1CCCC1=O)C1CC(=O)N(Cc2ccco2)C1 (configuration not stated),-1,5,98,95
CN(C)c1ccc(/C=N/NC(=O)c2ccccc2)cc1,3,-11,100,100
CC(=O)NC(C(=O)Nc1ccc(F)c(Cl)c1)C(C)C (configuration not stated),-3,-22,106,107
CCCc1nc(SCC(=O)c2ccc3c(c2)NC(=O)CO3)[nH]c(=O)c1CC,48,-24,101,103
O=C(COc1ccc2ccccc2c1)Nc1ccc(Cc2ccccn2)cc1,.,-39,101,98
CC(Sc1nncn1-c1ccccc1)C(=O)N(C)c1ccccc1 (configuration not stated),-9,-13,104,107
COc1cccc(NC(=O)C(C)N(C)c2ccccc2)c1 (configuration not stated),0,13,102,108
Clc1ccc(NCc2ccc3c(c2)OCO3)cc1,-7,-54,105,99
O=C(OCC(=O)N1CCCC1)C1=COCCO1,-2,-1,92,94
CC1(C)CC(=O)C=C(NNC(=O)C2COc3ccccc3O2)C1 (configuration not stated),7,-27,100,107
O=C(COC(=O)c1c2c(nc3ccccc13)CCC2)c1ccccc1,8,.,101,97
CN1C(C(=O)Nc2cccnc2)=CC(c2cccs2)=NS1(=O)=O,-2,-37,102,105

# Screening results (PubChem)
